# Compound activity (PubChem BioAssay)
# LANA-H2B inh: blockers of LANA interaction with H2A/H2B – biochemical, FP readout, HTS, primary screen | Protein LANA1 (Human herpesvirus 8 type P (isolate GK18)), Q9QR71 | cell-free LANA-H2A/H2B peptide, fluorescence polarization | inhibition, % (no concentration beside the values) | hit rate 0.6% among 320,000 | AID 2629, 2010; in the data active = inhibition mostly above about 10%, no sharp cut-off; inactive = mostly below about 6.7%;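 note: stock transfer was 7.5 nL into about 10 µL; 0% = median of vehicle wells and 100% = median of positive control wells; one replicate is shown; the record names a cut of 25% in any replicate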
# Target sequence (Q9QR71 whole entry, looked up): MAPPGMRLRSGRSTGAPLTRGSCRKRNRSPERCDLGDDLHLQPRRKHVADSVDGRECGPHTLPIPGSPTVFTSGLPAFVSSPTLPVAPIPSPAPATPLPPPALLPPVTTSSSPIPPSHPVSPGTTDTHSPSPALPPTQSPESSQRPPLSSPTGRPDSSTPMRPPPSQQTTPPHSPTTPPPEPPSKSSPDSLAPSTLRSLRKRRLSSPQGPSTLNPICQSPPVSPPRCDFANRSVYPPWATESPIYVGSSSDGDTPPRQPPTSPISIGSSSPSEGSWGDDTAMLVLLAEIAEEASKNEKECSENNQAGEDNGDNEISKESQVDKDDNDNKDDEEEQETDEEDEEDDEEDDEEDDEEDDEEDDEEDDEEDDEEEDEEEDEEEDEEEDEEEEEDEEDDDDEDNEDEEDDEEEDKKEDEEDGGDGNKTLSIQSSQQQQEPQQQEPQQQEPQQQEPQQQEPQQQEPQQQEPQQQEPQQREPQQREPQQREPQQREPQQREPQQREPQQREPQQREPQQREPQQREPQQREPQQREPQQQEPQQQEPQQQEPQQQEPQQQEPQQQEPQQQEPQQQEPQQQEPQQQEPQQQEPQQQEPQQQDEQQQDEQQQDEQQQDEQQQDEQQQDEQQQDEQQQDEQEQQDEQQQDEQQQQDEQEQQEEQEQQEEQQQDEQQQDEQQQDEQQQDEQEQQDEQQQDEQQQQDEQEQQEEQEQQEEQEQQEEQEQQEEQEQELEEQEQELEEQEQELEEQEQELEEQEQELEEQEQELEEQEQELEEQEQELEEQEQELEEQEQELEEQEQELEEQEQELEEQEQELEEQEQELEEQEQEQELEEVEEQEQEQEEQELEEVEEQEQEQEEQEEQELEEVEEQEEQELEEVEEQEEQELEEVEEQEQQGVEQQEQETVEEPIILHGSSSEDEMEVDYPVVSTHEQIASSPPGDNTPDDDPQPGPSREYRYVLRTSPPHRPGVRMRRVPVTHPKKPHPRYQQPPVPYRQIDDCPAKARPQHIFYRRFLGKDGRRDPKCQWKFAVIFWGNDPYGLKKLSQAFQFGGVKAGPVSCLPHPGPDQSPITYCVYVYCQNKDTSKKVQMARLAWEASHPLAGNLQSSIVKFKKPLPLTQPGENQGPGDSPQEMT
# Beta apoptosis: inhibitors of cytokine-induced beta cell apoptosis, primary screen, luminescence; protection from apoptosis, % (test concentration not listed); AID 435005, 2010; hit rate 0.8% among 300,000; INS-1E cytokine-induced death, ATP luminescence, 48 h; percent of positive-control rescue, neutral wells zero;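 active = all replicates at 75% or more, or half of them and the mean; inconclusive = half reach 75% but not the mean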;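 note: 0% = cytokine-treated negative control wells and 100% = positive control rescue; higher means more ATP so stronger rescue from cytokine killing; wells of about 40 µL received 100 nL stock; the first replicate is given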
# UCH37 DUB inh: inhibitors of human UCH37 deubiquitinase, primary screen, biochemical, Ub-AMC cleavage, fluorescence. Ubiquitin carboxyl-terminal hydrolase isozyme L5 (Homo sapiens), Q9Y5K5. purified proteasome/UCH37. inhibition, % (concentration not given with the values). hit rate 0.33% among 330,000. AID 588478, 2011;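 active = mean of two replicates above 20%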;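 note: 0% = compound-free wells with enzyme and 100% = wells lacking proteasome; stock transfer was 100 nL into about 20 µL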
#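 Signal – fluorescence, ex 355 nm, em 460 nm · System – Proteasome-bound UCH37 · Input – 0.15 nM proteasome as dispensed · Timing – 30 min preincubation with enzyme, 25 min cleavage at room temperature · Read-out basis – percent inhibition of cleavage signal versus uninhibited and no-proteasome wells · Medium – Tris-HCl pH 7.4 with ATP-MgCl2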
# T cruzi repl: inhibitors of intracellular T. cruzi growth, primary screen, luminescence, NIH3T3 host cells. T. cruzi beta-gal in NIH3T3, 90 h. inhibition, % (test concentration not listed). hit rate 1.4% among 300,000. AID 1885, 2009;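 active = mean inhibition across valid replicates above about 55%, limit read from the data; inconclusive = mean below that limit but half or more replicates reach it; inactive = mean below it, under half of replicates reach it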;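 note: signal also drops with host cell toxicity which is not excluded here; 0% = plate median of DMSO wells and 100% = zero luminescence signal; higher percent means less beta-gal luminescence so fewer parasites; stock transfer was 50 nL into about 50 µL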
# Calb FLC: C. albicans growth inhibition with fluconazole, primary screen, CaCi-2 strain, Alamar Blue fluorescence; AID 1979, 2009; growth inhibition, % (test concentration not listed); C. albicans CaCi-2 (fluconazole-resistant clinical isolate) + fluconazole, 48 h; hit rate 0.57% among 300,000;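 active = most replicates above 75%; inconclusive = exactly half above 75%; inactive = most below 75%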;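 note: all wells also contain fluconazole at 8 µg/ml as a sub-toxic cotreatment; 0% = median of DMSO wells and 100% = median of geldanamycin control wells; wells of about 8 µL received 7.5 nL stock; the first replicate is given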
# RanGTP-Impb inh: inhibitors of RanGTP-importin-beta interaction, primary screen, biochemical, FRET, CFP-Ran, YFP-importin-beta, homogeneous | cell-free CFP-Ran/YFP-importin-beta FRET ratio | hit rate 1.1% among 300,000 | inhibition, % (no concentration beside the values);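 active = most replicates above 15%; inconclusive = exactly half above 15%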;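 note: 0% = DMSO wells and 100% = Ran loaded with GDP instead of GTP; wells of about 40 µL received 100 nL stock; the first replicate is given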
# Bfl-1 A1 inh: caspase 3/7 activation in MEF A1-2A-BIM cells, primary screen, A1 inhibitor project, cell-based, luminescence, HTS; Caspase-Glo 3/7 luminescence, 3 h; percent of clofoctol response, vehicle zero; caspase activation, % (no concentration beside the values); hit rate 0.066% among 330,000; AID 2462, 2010;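 active = over half of replicate activation scores above 10%, or exactly half above 10 with the replicate mean above 10; inconclusive = replicate mean below 10 yet half the replicates above 10; inactive = over half of replicates below 10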;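 note: wells of about 30 µL received 50 nL stock; many hits fall short of the cut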
# Beta2AR agonist: beta2AR agonists driving receptor internalization, primary screen, cell-based, FAP fluorogen, flow cytometry | response, % (test concentration not listed) | Am2.2-beta2AR cells; reference of the scale not given here | hit rate 0.43% among 340,000;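 active = response above a set limit, near 3 SD of response in nonfluorescent compounds, cut at about 42% in these data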;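 note: stock transfer was 100 nL into about 11 µL; a reference agonist was the positive control; negative values mostly stem from fluorescent compounds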
# Starred values were filed as active, the others as inactive; ? = inconclusive; . = not tested or not shown; & = joins results of further samples.
SMILES,LANA-H2B inh,Beta apoptosis,UCH37 DUB inh,T cruzi repl,Calb FLC,RanGTP-Impb inh,Bfl-1 A1 inh,Beta2AR agonist
CN1C(=O)CC(N2CCN(c3ccccc3)CC2)C1=O (stereo unspecified),1.7,1.5,1.7,-6.2,-3.9,0.3,0.3,3.4
CCc1nn(CC(=O)NCCCN(C)Cc2ccccc2)c(=O)c2cc3sc(C)cc3n12,8.6,0.4,1.1,43.1,-18.9,2.7,-3.0,-14.0
Cc1ccc(S(=O)(=O)NC(C)C(=O)Nc2cccc([N+](=O)[O-])c2)cc1 (stereo unspecified),-3.7,-2.9,4.3,-10.2,-26.0,.,0.8,-6.1
N#Cc1ccccc1Sc1ccccc1C(=O)OCC(=O)NC1CCS(=O)(=O)C1 (stereo unspecified),1.4,0.9,1.1,2.1,-13.9,0.0,0.3,-3.3
O=C(CSc1nc(C2CC2)nc2ccccc12)Nc1cccc(O)c1,0.2,1.4,6.3,-10.6,5.2,3.3,-0.4,-1.6
O=C(Nc1ccncc1)c1ccccc1[N+](=O)[O-],7.1,-8.8,0.5,2.9,-5.1,5.5,-0.2,4.1
CN(CC(=O)Nc1cccc(F)c1)C(=O)c1cccnc1Sc1ccccc1Cl,0.2,-0.6,5.5,-3.7,0.1,?,-0.1,9.9
CCn1ncc(C2=NOC(C(=O)Nc3cccc(C(C)=O)c3)C2)c1C (stereo unspecified),3.9,-0.5,3.5,-17.0,2.5,-4.5,2.5,9.2
CCOC(=O)c1c(-c2ccccc2)oc2ccc(OCC(=O)NNC(=O)CCCC(=O)O)cc12,0.5,5.0,-449.1,-27.8,-7.0,6.1,-0.3,-8.4
CCN(C(=O)c1cc2cc(OC)ccc2oc1=O)c1cccc(C)c1,0.1,-2.3,-17.1,-5.6,-4.9,2.1,0.6,-8.8
CCc1nc2ccc(C)cc2c(C(=O)Oc2cccc3cccnc23)c1C,-6.0,17.8,2.4,-1.0,-1.8,8.6,-0.2,21.4
O=C1C2C3C=CC(c4ccccc4)(C2C(=O)N1c1cccc(Cl)c1)C1C(=O)N(c2cccc(Cl)c2)C(=O)C31 (stereo unspecified),5.6,-3.5,6.1,17.8,-0.1,1.3,0.3,7.9

# 3 structures out of the list, ordered by count of non-hydrogen atoms, smallest number first:
SMILES,LANA-H2B inh,Beta apoptosis,UCH37 DUB inh,T cruzi repl,Calb FLC,RanGTP-Impb inh,Bfl-1 A1 inh,Beta2AR agonist
Cc1ccc(S(=O)(=O)NC(C)C(=O)Nc2cccc([N+](=O)[O-])c2)cc1 (stereo unspecified),-3.7,-2.9,4.3,-10.2,-26.0,.,0.8,-6.1
N#Cc1ccccc1Sc1ccccc1C(=O)OCC(=O)NC1CCS(=O)(=O)C1 (stereo unspecified),1.4,0.9,1.1,2.1,-13.9,0.0,0.3,-3.3
O=C1C2C3C=CC(c4ccccc4)(C2C(=O)N1c1cccc(Cl)c1)C1C(=O)N(c2cccc(Cl)c2)C(=O)C31 (stereo unspecified),5.6,-3.5,6.1,17.8,-0.1,1.3,0.3,7.9

# (listing goes on)
SMILES,LANA-H2B inh,Beta apoptosis,UCH37 DUB inh,T cruzi repl,Calb FLC,RanGTP-Impb inh,Bfl-1 A1 inh,Beta2AR agonist
Cc1ccc(S(=O)(=O)/N=C(\CN2CCOCC2)N2CCCC2)cc1,-5.3,0.1,.,5.2,-8.5,-0.9,-0.1,1.7
O=[N+]([O-])c1ccc(-c2ccc(C=Nc3cccc4ccccc34)o2)cc1,0.5,1.6,2.1,-13.1,-5.2,6.4,-0.8,7.6
Nc1nc(OCc2ccccc2)c2[nH]cnc2n1,0.4,-2.8,-0.3,-13.4,.,1.1,0.5,-5.6
Cc1ccc(C(NC(=O)N2CCOCC2)=C(Cl)Cl)cc1F,-1.3,-11.5,5.0,-28.3,?,6.3,-0.1,8.7
CCS(=O)(=O)NCCc1csc(-c2ccccc2)n1,-3.2,2.4,-3.3,-9.6,3.7,2.3,-2.1,-1.8
Cc1ccc2c(c1)Cc1nc3ccccc3nc1-2,-4.4,2.0,-313.8,2.5,-15.6,-2.6,-7.3,-3.9
Cc1cccc2c(C(=O)N3CCN(C(=O)c4ccco4)CC3)cc(-c3cccc(Br)c3)nc12,-3.2,-8.1,-0.3,1.4,16.5,-1.2,1.2,-1.2
CCC1Oc2ccc(C)cc2N(CC(=O)N(Cc2ccc(C)o2)C2CCCC2)C1=O (stereo unspecified),0.8,8.1,6.0,6.2,0.4,1.3,0.7,-10.0
COc1ccc(CN(Cc2ccc(OC)cc2)S(=O)(=O)c2ccc(-n3cnnn3)c(C)c2)cc1,0.2,.,0.1,51.5,2.5,27.1*,-0.7,2.5
O=[N+]([O-])c1cc(C(F)(F)F)ccc1-n1nnc2ccccc21,4.3,-9.9,4.5,-12.8,-3.6,-0.8,-0.1,-28.8
Nc1c(N(CCC2=CCCCC2)C(=O)COc2ccc(F)cc2)c(=O)[nH]c(=O)n1Cc1ccccc1,-1.1,97.0*,24.2*,.,.,.,?,-3.0
CCN(CC(=O)Nc1sc2c(c1C#N)CCCC2)Cc1nc2ccccc2c(=O)[nH]1,3.7,5.2,4.2,4.3,-5.0,0.0,-0.3,-6.8
Cc1ccc(NC(=O)CN(C)S(=O)(=O)c2cccs2)c(Br)c1,-6.0,-1.2,6.1,-3.1,5.1,-2.0,1.7,-1.2
COc1ccc(CC(=O)NCc2nnc(SCC(=O)Nc3nccs3)n2C)cc1,-3.9,-2.6,0.9,.,-7.0,-5.8,-0.3,-1.7
Cc1ccc(S(=O)(=O)c2c[nH]c3ccc(C)cc3c2=O)cc1,0.6,-3.9,-2.8,1.4,0.5,-1.1,-2.5,7.7
Cc1ccc(-c2csc(NC(=O)COC(=O)c3cccc(S(=O)(=O)N4CCOCC4)c3)n2)cc1,4.4,-7.3,5.2,1.1,-18.0,1.2,-3.6,.
Cc1ccc2c(c1)sc1nc(=O)n(-c3ccccc3)c(=O)n12,-0.6,-1.2,4.6,-2.2,7.1,3.8,0.0,-4.8
O=C(CCCCn1c(=O)c2ccccc2n(CC(=O)NC2CCCC2)c1=O)NC1CCCC1,-1.6,14.0,-0.5,-1.7,-6.9,0.1,-0.2,1.2
O=C(NC(=S)Nc1cccc([N+](=O)[O-])c1)c1ccco1,-3.0,.,1.1,-9.2,0.9,4.1,0.4,-4.8
CC(C)CN1C(=S)SC(C)(C)C1n1oc(=O)n(-c2ccc(Cl)cc2)c1=O (stereo unspecified),-2.8,-0.7,3.5,38.9,9.9,4.4,0.8,12.4
CN1CCN(C(=S)Nc2ccc(S(N)(=O)=O)cc2)CC1,6.7,-5.2,0.0,-2.5,-13.1,1.8,0.1,5.9
COc1ccc(CNC(=O)CCS(=O)(=O)c2ccc3c(c2)NC(=O)CS3)cc1,-1.4,-3.4,0.6,-2.4,-5.8,-2.8,0.8,5.8
COc1ccc(C(=O)NC2CCCc3ccccc32)cc1[N+](=O)[O-] (stereo unspecified),2.2,.,3.5,-14.1,40.4,-1.5,0.8,-0.6
CN(C)S(=O)(=O)c1cccc(NC(=O)Cc2ccc(Cl)cc2)c1,-1.2,.,0.2,-10.4,-4.0,0.7,0.0,-8.3
CC(C)c1cc(=O)n2[nH]c(SCc3ccccc3)nc2n1,0.1,0.9,2.4,-3.8,6.0,-4.3,0.2,9.1
CCOc1ccc2ccccc2c1C(=O)N[C@@H]1C(=O)N2[C@@H]1SC(C)(C)[C@@H]2C(=O)O,-0.6&9.4,-5.0&4.1,4.6&0.6,-13.3,.,1.6,-0.5&0.6,-8.6&1.9
COc1ccc(N2C(=O)C3C(C2=O)C(C(=O)c2ccccc2)N2CCCC32)cc1 (stereo unspecified),-19.0,-4.3,.,6.3,-32.5,-6.9,0.5,22.1
O=C1c2ccc(-c3ccc(Cl)c(C(F)(F)F)c3)cc2S(=O)(=O)c2cccc(C(=O)N3CCN(c4ncc(Br)cn4)CC3)c21,-0.6,3.2,3.3,.,.,.,-0.3,-3.4
Clc1cc2nc3ccccn3c2cc1Cl,-2.6,-6.1,-225.1,1.8,-4.1,?,-1.1,-8.7
CC(C)(C)c1nnc2sc(SCC(=O)N3CCCCC3)nn2c1=O,3.8,-14.6,7.7,.,.,.,0.1,-9.8
CCC(C)NC(=O)c1cnn2c1NC(c1cccs1)CC2C(F)(F)F (stereo unspecified),-1.1,-0.5,-2.0,5.6,-3.0,9.6,-0.1,-2.3
CC1(C)CC(=O)c2c(O)cc(OCC(=O)Nc3ccc(S(N)(=O)=O)cc3)cc2O1,0.8,-6.1,3.3,-4.6,-2.0,9.5,0.2,-25.7
Cc1ccc(S(=O)(=O)c2cc3c(=O)n4ccccc4nc3n(C3CCCCC3)c2=N)cc1,2.2,-13.0,-12.1,22.7,20.2,47.7*,-2.2,-1.6
CC(=O)Oc1cccc(/C=C2\C=C(c3ccc(C)cc3)OC2=O)c1,-0.6,-6.3,0.4,-2.6,-10.4,-2.0,0.1,3.5
CSc1c(CN2CCN(C)CC2)c2ccccc2n1C,0.2,1.9,4.5,36.3,-2.3,2.0,1.6,-0.7
CCCn1nnnc1SCC(=O)N1C(C)CCCC1C (stereo unspecified),3.3,3.2,1.6,2.6,-12.5,8.0,-0.4,2.0
CN1CCC(N(C)CC(=O)Nc2ccc3c(c2)OC(F)(F)O3)CC1,-1.0,-5.6,-0.6,44.4,0.6,2.5,0.1,8.9
Cc1cc(Nc2ccc(Br)cc2)n2nc(C)nc2n1,-2.0,0.2,2.5,-11.5,6.6,4.9,0.6,-8.4
CC(=O)Nc1ccc(S(=O)(=O)N2CCN=C2c2ccccc2)cc1,2.5,-2.1,-1.4,-26.5,-14.0,0.2,0.4,-4.3
COc1cccc(C=Nc2ccccc2C#N)c1O,-1.0,-8.5,7.1,-4.4,-22.5,-6.0,-0.3,-0.1
N#Cc1ccccc1S(=O)(=O)N1CCN(C(=O)[C@@H]2CCCN2C(=O)c2cccs2)CC1,2.4,-5.1,1.9,.,.,.,-0.1,2.8
Cc1cccnc1NC(=O)C(C)Oc1ccccc1 (stereo unspecified),4.2,0.1,-1.4,0.0,1.0,-8.8,1.5,1.6
O=C(O)COc1ccccc1/C=N/NC(=O)Cc1ccccc1,0.1,3.0,.,-11.9,11.1,2.1,-0.2,-4.1
CCCNc1cc(=O)n(C)c(=O)n1C,2.1,-3.8,0.6,3.0,.,4.5,0.8,3.6
COc1ccc(C)cc1NC(=O)CNC(=O)c1sc2ccccc2c1Cl,-0.5,8.4,1.5,-15.0,0.2,2.0,0.7,3.5
Cc1cc(C)nc(SCc2ccccc2C#N)n1,2.4,-3.6,17.8,-4.3,10.7,4.9,0.9,-12.0
